Screening data from PubChem.
Yeast UUG start – alters start codon recognition fidelity in yeast; activity score, % at 18.7 µM; S. cerevisiae UUG-firefly luciferase reporter, luminescence/redox ratio; 350,000 compounds, 0.13% hits; AID 602363;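 active means replicate mean at a twofold rise or more, about +100% in these data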;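 further: firefly luciferase made from a UUG start codon reports start codon fidelity; reporter light over untreated wells divided by growth signal over untreated wells; some hits fall short of that in this replicate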
HIV Env fusion – inhibitors of HIV Env-mediated cell fusion; HeLa-JRFL Env/CEM21 cell fusion, luciferase; AID 651610; inhibition, % at 12.3 µM; 360,000 compounds, 1.1% hits;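 active means mean replicate inhibition score of at least 50 and every replicate individually at or above 50; inconclusive means only one of the two criteria met; inactive means mean below 50 and not all replicates reaching 50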;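 further: 0% = plate neutral controls and 100% = maraviroc near 300 nM; one replicate is shown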
An asterisk follows results filed as active; ? = inconclusive; [ ] = another dose, or the depositor's remark.

SMILES | Yeast UUG start | HIV Env fusion
C[C@@H]1CN([C@H](C)CO)S(=O)(=O)c2ccc(Br)cc2O[C@H]1CN(C)Cc1cccnc1 | 3 | 1[16.7 µM]
C[C@@H]1CN([C@@H](C)CO)C(=O)c2cc(-c3ccc(C#N)cc3)cnc2O[C@H]1CN(C)C(=O)c1ccccc1 | -1 | 1[16.7 µM]
CNC[C@@H]1Oc2cc(C#CCC(C)C)ccc2S(=O)(=O)N([C@@H](C)CO)C[C@H]1C | -4 | 15[16.7 µM]
CCCC#Cc1cnc2c(c1)C(=O)N([C@@H](C)CO)C[C@@H](C)[C@H](CN(C)C(=O)c1cnccn1)O2 | 7 | -16[16.7 µM]
C[C@@H]1CCCCO[C@H](CN(C)C(=O)Nc2ccccc2)[C@H](C)CN([C@@H](C)CO)C(=O)c2cc(NC(=O)c3ccccc3)ccc2O1 | 8 | 25[16.7 µM]
C[C@@H]1CCCCO[C@@H](CN(C)C(=O)Nc2cccc3ccccc23)[C@H](C)CN([C@H](C)CO)C(=O)c2cc(NC(=O)Nc3ccccc3)ccc2O1 | -10 | 5[16.7 µM]
C[C@@H]1CCCCO[C@H](CN(C)Cc2ccncc2)[C@H](C)CN([C@H](C)CO)C(=O)c2cc(NS(=O)(=O)c3cn(C)cn3)ccc2O1 | -3 | -6[16.7 µM]
CN(C)C(=O)c1cccc(-c2ccc([C@H]3[C@@H](CO)N(C(=O)C4CCC4)[C@H]3C#N)cc2)c1 | 1 | -1[16.7 µM]
C[C@@H]1CCCCO[C@@H](CN(C)C(=O)NC2CCCCC2)[C@H](C)CN([C@@H](C)CO)C(=O)c2cc(NC(=O)Nc3cccc4ccccc34)ccc2O1 | 14 | 21[16.7 µM]
Cc1noc(C)c1NC(=O)N[C@@H]1C=C[C@H](CC(=O)N2CCN(C)CC2)O[C@@H]1CO | -7 | 0[16.7 µM]
CO[C@@H]1CN(C)C(=O)c2ccc(NS(C)(=O)=O)cc2OC[C@H](C)N(C(=O)C2CCCCC2)C[C@@H]1C | 54 | -5[16.7 µM]
COc1ccc(NC(=O)N(C)C[C@H]2Oc3ccc(NS(C)(=O)=O)cc3CC(=O)N([C@@H](C)CO)C[C@H]2C)cc1 | -37 | 3[16.7 µM]
C[C@H](CO)N1C[C@H](C)[C@@H](CN(C)Cc2ccc3c(c2)OCO3)Oc2ccc(NC(=O)c3ccncc3)cc2CC1=O | 3 | 10[16.7 µM]
COc1ccc(S(=O)(=O)N(C)C[C@@H]2Oc3ccc(NS(=O)(=O)c4cn(C)cn4)cc3C(=O)N([C@H](C)CO)C[C@H]2C)cc1 | -7 | -3[16.7 µM]
Cc1noc(C)c1NC(=O)N(C)C[C@@H]1Oc2ccc(NC(=O)C3CCCCC3)cc2C(=O)N([C@H](C)CO)C[C@@H]1C | -8 | 4[16.7 µM]
CCNC(=O)C[C@H]1CC[C@@H]2[C@H](COc3ccc(NC(=O)NC(C)C)cc3C(=O)N2C)O1 | -3 | 6[16.7 µM]
C[C@H]1CN([C@@H](C)CO)C(=O)c2cc(C#CCc3ccccc3)cnc2O[C@H]1CN(C)Cc1ccccn1 | -3 | 18[16.7 µM]
CNC(=O)C[C@@H]1CC[C@H]2[C@H](COc3ccc(NC(=O)Nc4ccc(F)cc4)cc3C(=O)N2C)O1 | 2 | 24[16.7 µM]
C[C@@H]1CCCCO[C@@H](CN(C)Cc2ccc(C(F)(F)F)cc2)[C@H](C)CN([C@H](C)CO)C(=O)c2cc(NC(=O)Nc3ccccc3)ccc2O1 | 7 | ?
Cc1noc(C)c1S(=O)(=O)Nc1ccc2c(c1)CC(=O)N([C@@H](C)CO)C[C@@H](C)[C@H](CN(C)C(=O)Nc1ccc(C(F)(F)F)cc1)O2 | -22 | 16[16.7 µM]
CC(=O)N(C)C[C@H]1Oc2cc(C#CC(C)C)ccc2S(=O)(=O)N([C@H](C)CO)C[C@H]1C | 16 | -3[16.7 µM]
C[C@@H]1CN([C@@H](C)CO)C(=O)c2cc(NC(=O)Nc3ccccc3)ccc2O[C@@H](C)CCCCO[C@@H]1CN(C)C(=O)CCC(F)(F)F | 17 | -13[16.7 µM]
C[C@H]1CN([C@@H](C)CO)C(=O)Cc2cc(NC(=O)Nc3ccc(F)cc3)ccc2O[C@@H]1CN(C)CC1CCCCC1 | -6 | -7[16.7 µM]
C[C@H]1CN([C@@H](C)CO)C(=O)c2cc(C#CC3CCCC3)cnc2O[C@@H]1CN(C)C(=O)C1CCC1 | 24 | 9[16.7 µM]
CNC[C@@H]1Oc2ncc(Br)cc2C(=O)N([C@@H](C)CO)C[C@@H]1C | 1 | -14[16.7 µM]
O=C(NCC[C@@H]1CC[C@H](NC(=O)c2cccnc2)[C@@H](CO)O1)Nc1ccc(F)cc1 | 2 | 6[16.7 µM]
C[C@H](CO)N1C[C@H](C)[C@@H](CN(C)C(=O)Nc2ccnc(N3CCOCC3)c2)OCc2cn(nn2)CCCC1=O | 23 | 22
COc1ccc(NC(=O)N(C)C[C@@H]2OCCCC[C@H](C)Oc3ccc(NS(=O)(=O)c4ccccc4)cc3C(=O)N([C@H](C)CO)C[C@@H]2C)cc1 | -8 | -20[16.7 µM]
CCCNC(=O)C[C@H]1C[C@H]2c3cc(NC(=O)CN(C)C)ccc3O[C@H]2[C@H](CO)O1 | -13 | 89*[16.7 µM]
C[C@@H]1CN([C@@H](C)CO)C(=O)c2cc(NC(=O)Nc3ccc(F)cc3)ccc2O[C@H]1CN(C)Cc1ccc(-c2ccccc2)cc1 | -4 | 47[16.7 µM]
CC(C)NC(=O)Nc1ccc2c(c1)CC(=O)N([C@H](C)CO)C[C@H](C)[C@H](CN(C)CC1CCCCC1)O2 | 10 | -31[16.7 µM]
C[C@@H]1CN([C@H](C)CO)S(=O)(=O)c2ccc(-c3cncnc3)cc2O[C@H]1CN(C)C(=O)c1cccc(F)c1 | 10 | -1[16.7 µM]
CCCNC(=O)C[C@@H]1CC[C@H]2[C@H](COc3ccc(NC(=O)C4CCOCC4)cc3C(=O)N2C)O1 | -14 | 36[16.7 µM]
CCCC(=O)Nc1ccc2c(c1)C(=O)N(C)[C@H]1CC[C@H](CC(=O)Nc3ccccc3)O[C@@H]1CO2 | -3 | 4[16.7 µM]
C[C@@H]1CCCCO[C@@H](CN(C)C(=O)c2ccncc2)[C@@H](C)CN([C@@H](C)CO)C(=O)c2cc(NS(=O)(=O)c3cccs3)ccc2O1 | 4 | 19[16.7 µM]
COc1ccc(-c2cn(CC[C@@H]3CC[C@H](NC(=O)Cc4ccccn4)[C@H](CO)O3)nn2)cc1 | -2 | 5[16.7 µM]
C[C@@H]1CN([C@@H](C)CO)C(=O)c2cccc(NS(=O)(=O)c3cn(C)cn3)c2O[C@H]1CN(C)Cc1ccc(Cl)c(Cl)c1 | -17 | -10[16.7 µM]
CN(C)C(=O)C[C@H]1CC[C@@H](NC(=O)c2ccc(F)cc2)[C@@H](CO)O1 | -14 | 0[16.7 µM]
C[C@@H]1CN([C@@H](C)CO)C(=O)c2cc(NC(=O)Nc3ccccc3)ccc2O[C@@H](C)CCCCO[C@H]1CN(C)C(=O)CCCN(C)C | 2 | 6[16.7 µM]
CC(C)NC(=O)N(C)C[C@@H]1Oc2cc(C#Cc3ccc(F)cc3)ccc2S(=O)(=O)N([C@@H](C)CO)C[C@H]1C | 12 | 25[16.7 µM]

Seven entries already listed, arranged by molecular weight, ascending:
SMILES | Yeast UUG start | HIV Env fusion
CN(C)C(=O)C[C@H]1CC[C@@H](NC(=O)c2ccc(F)cc2)[C@@H](CO)O1 | -14 | 0[16.7 µM]
CCCNC(=O)C[C@H]1C[C@H]2c3cc(NC(=O)CN(C)C)ccc3O[C@H]2[C@H](CO)O1 | -13 | 89*[16.7 µM]
CCCC(=O)Nc1ccc2c(c1)C(=O)N(C)[C@H]1CC[C@H](CC(=O)Nc3ccccc3)O[C@@H]1CO2 | -3 | 4[16.7 µM]
CC(C)NC(=O)Nc1ccc2c(c1)CC(=O)N([C@H](C)CO)C[C@H](C)[C@H](CN(C)CC1CCCCC1)O2 | 10 | -31[16.7 µM]
C[C@@H]1CN([C@@H](C)CO)C(=O)c2cc(NC(=O)Nc3ccc(F)cc3)ccc2O[C@H]1CN(C)Cc1ccc(-c2ccccc2)cc1 | -4 | 47[16.7 µM]
C[C@@H]1CN([C@@H](C)CO)C(=O)c2cc(NC(=O)Nc3ccccc3)ccc2O[C@@H](C)CCCCO[C@H]1CN(C)C(=O)CCCN(C)C | 2 | 6[16.7 µM]
C[C@@H]1CCCCO[C@@H](CN(C)C(=O)c2ccncc2)[C@@H](C)CN([C@@H](C)CO)C(=O)c2cc(NS(=O)(=O)c3cccs3)ccc2O1 | 4 | 19[16.7 µM]

The results go on:
SMILES | Yeast UUG start | HIV Env fusion
COc1ccc(S(=O)(=O)Nc2ccc3c(c2)C(=O)N([C@@H](C)CO)C[C@@H](C)[C@@H](CN(C)Cc2ccccc2)OCCCC[C@H](C)O3)cc1 | 3 | -72[16.7 µM]
C[C@@H]1CN([C@@H](C)CO)C(=O)c2cc(NS(=O)(=O)c3cccs3)ccc2O[C@H]1CN(C)C(=O)Nc1ccc(F)cc1 | -6 | 27[16.7 µM]
C[C@H](CO)N1C[C@H](C)[C@H](CN(C)Cc2ccncc2)Oc2cc(-c3ccncc3)ccc2S1(=O)=O | -16 | 3[16.7 µM]
C[C@@H]1CN([C@H](C)CO)C(=O)Cc2cc(NC(=O)NC3CCCCC3)ccc2O[C@H]1CN(C)C(=O)Nc1ccccc1 | 5 | 8[16.7 µM]
C[C@@H]1CCCCO[C@H](CN(C)S(=O)(=O)c2ccc(F)cc2)[C@H](C)CN([C@H](C)CO)C(=O)c2cc(NS(=O)(=O)c3ccc(F)cc3)ccc2O1 | 4 | 21[16.7 µM]
COc1ccccc1-c1cnc2c(c1)C(=O)N([C@H](C)CO)C[C@@H](C)[C@H](CN(C)C(=O)c1ccccc1)O2 | -8 | -24[16.7 µM]
COc1ccccc1S(=O)(=O)N[C@@H]1CC[C@@H](CC(=O)N2CCN(C)CC2)O[C@@H]1CO | -8 | -16[16.7 µM]
COCC#Cc1cnc2c(c1)C(=O)N([C@@H](C)CO)C[C@H](C)[C@H](CN(C)Cc1ccc(F)cc1)O2 | -8 | -8[16.7 µM]
C[C@@H]1CN([C@H](C)CO)C(=O)c2cc(NC(=O)Cc3cn(C)c4ccccc34)ccc2O[C@H]1CN(C)Cc1ccc(C(F)(F)F)cc1 | 5 | 6[16.7 µM]
CC(C)C#Cc1cnc2c(c1)C(=O)N([C@H](C)CO)C[C@H](C)[C@@H](CN(C)C(=O)CC1CC1)O2 | 3 | -6[16.7 µM]
Cc1nn(C)cc1NC(=O)C[C@H]1CC[C@@H]2[C@H](COc3ccc(NC(=O)C(C)C)cc3C(=O)N2C)O1 | -11 | 27[16.7 µM]
O=C(NCC[C@H]1CC[C@@H](NS(=O)(=O)c2ccccc2F)[C@@H](CO)O1)c1ccc(F)cc1 | 9 | -14[16.7 µM]
C[C@@H]1CN([C@@H](C)CO)C(=O)c2cc(NC(=O)NC3CCCCC3)ccc2O[C@@H]1CN(C)Cc1ccc(-c2ccccc2)cc1 | 28 | 29[16.7 µM]
C[C@H](O)C#Cc1ccc2c(c1)O[C@H](CN(C)Cc1cncnc1)[C@H](C)CN([C@@H](C)CO)S2(=O)=O | -10 | 14[16.7 µM]
C[C@@H]1CN([C@@H](C)CO)C(=O)c2cccc(NC(=O)c3ccncc3)c2O[C@@H]1CN(C)C(=O)NC1CCCCC1 | -2 | -8[16.7 µM]
C[C@@H]1CN([C@H](C)CO)C(=O)c2cc(C#CCN(C)C)cnc2O[C@H]1CN(C)S(=O)(=O)c1cn(C)cn1 | -5 | -16[16.7 µM]
Cc1noc(C)c1NC(=O)N(C)C[C@H]1Oc2ccc(NS(=O)(=O)c3cn(C)cn3)cc2CC(=O)N([C@@H](C)CO)C[C@H]1C | -4 | 2[16.7 µM]
C[C@H]1CN([C@@H](C)CO)C(=O)c2cc(-c3ccc(C#N)cc3)cnc2O[C@H]1CN(C)C(=O)Nc1ccccc1 | -8 | -9[16.7 µM]
Cc1noc(C)c1NC(=O)Nc1ccc2c(c1)C(=O)N([C@H](C)CO)C[C@@H](C)[C@@H](CN(C)CC1CCCCC1)OCCCC[C@H](C)O2 | 43 | 4[16.7 µM]
C[C@H](CO)N1C[C@H](C)[C@H](CN(C)C(=O)Cc2ccncc2)Oc2cc(-c3cncnc3)ccc2S1(=O)=O | 0 | -19[16.7 µM]
COc1ccc(S(=O)(=O)Nc2ccc3c(c2)C(=O)N([C@@H](C)CO)C[C@H](C)[C@@H](CN(C)S(=O)(=O)c2c(C)noc2C)OCCCC[C@H](C)O3)cc1 | 11 | 33[16.7 µM]
C[C@H](CO)N1C[C@H](C)[C@H](CN(C)C(=O)c2ccncc2)OCCCC[C@H](C)Oc2ccc(NS(=O)(=O)c3ccccc3)cc2C1=O | -7 | -13[16.7 µM]
COc1ccc(S(=O)(=O)Nc2ccc3c(c2)C(=O)N([C@@H](C)CO)C[C@H](C)[C@H](CN(C)C(=O)Cc2ccccc2)OCCCC[C@@H](C)O3)cc1 | 6 | -1[16.7 µM]
C[C@@H]1CN([C@H](C)CO)C(=O)c2cc(N(C)C)ccc2O[C@@H](C)CCCCO[C@@H]1CN(C)S(=O)(=O)c1cccs1 | 8 | 25[16.7 µM]
COc1ccc(S(=O)(=O)Nc2ccc3c(c2)CC(=O)N([C@@H](C)CO)C[C@H](C)[C@H](CN(C)S(=O)(=O)c2c(C)noc2C)O3)cc1 | 0 | 12[16.7 µM]
C[C@@H]1CN([C@@H](C)CO)C(=O)c2cc(NS(C)(=O)=O)ccc2O[C@@H]1CN(C)Cc1ccc(Cl)c(Cl)c1 | 14 | 8[16.7 µM]
C[C@H](CO)N1C[C@H](C)[C@@H](CN(C)Cc2ccc(Cl)c(Cl)c2)OCCCC[C@H](C)Oc2ccc(NS(=O)(=O)c3cccs3)cc2C1=O | 14 | 15[16.7 µM]

A portion of the library. The share of hits here may be higher or lower than overall.
